PABP FP inh: blocks human PABP binding to poly(A) RNA; P11940; fluorescence polarization; inhibition, % at 35 µM; 1% of 290,000 active; AID 2014;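 active = 50% or more with normal probe brightness, or confirmed in later tests; about a fifth of its hits are not listed in these tables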;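 also: calls also rest on retests at 20 µM and on dose response follow-up; controls were probe without protein and protein plus probe with vehicle; some compounds called inactive have numbers as strong as hits; many hits fall short of the cut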
Target sequence (P11940 whole entry, looked up): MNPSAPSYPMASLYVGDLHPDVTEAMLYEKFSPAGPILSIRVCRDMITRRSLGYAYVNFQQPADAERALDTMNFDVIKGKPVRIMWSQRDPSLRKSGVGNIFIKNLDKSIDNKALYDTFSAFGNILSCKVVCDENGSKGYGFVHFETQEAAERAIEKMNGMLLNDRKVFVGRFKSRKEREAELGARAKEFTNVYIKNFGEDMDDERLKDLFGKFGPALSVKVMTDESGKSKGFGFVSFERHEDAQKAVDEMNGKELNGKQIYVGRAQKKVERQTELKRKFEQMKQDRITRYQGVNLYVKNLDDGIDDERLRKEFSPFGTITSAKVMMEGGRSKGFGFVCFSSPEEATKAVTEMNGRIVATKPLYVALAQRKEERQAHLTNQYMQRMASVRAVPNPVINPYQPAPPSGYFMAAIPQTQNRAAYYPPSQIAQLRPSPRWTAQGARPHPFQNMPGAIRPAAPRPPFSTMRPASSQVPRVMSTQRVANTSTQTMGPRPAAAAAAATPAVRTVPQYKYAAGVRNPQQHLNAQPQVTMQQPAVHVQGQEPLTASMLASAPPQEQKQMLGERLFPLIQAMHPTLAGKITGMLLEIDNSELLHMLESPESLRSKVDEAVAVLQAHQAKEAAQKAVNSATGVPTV
CSC inhib: cancer stem cell inhibition; 1.1% of 300,000 active; cancer stem cell-like cells viability, luminescence; AID 2717; inhibition, % at 7.5 µM;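 active = mean at 75% or more and at least half the replicates too; tested in HMLE shEcad cells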;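 also: 0% = median of negative and 100% = median of positive control wells; the first replicate is given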
Env fusion inh: inhibitors of HIV Env-mediated cell fusion; inhibition, % at 12.3 µM; 1.1% of 360,000 active; HeLa-JRFL Env/CEM21 cell fusion, luciferase;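 active = mean replicate inhibition score of at least 50 and every replicate individually at or above 50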;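 also: 0% = plate neutral controls and 100% = maraviroc near 300 nM; one replicate is shown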
Yeast UUG start: yeast start codon fidelity modulation | AID 602363 | 0.13% of 350,000 active | activity score, % at 18.7 µM | S. cerevisiae UUG-firefly luciferase reporter, luminescence/redox ratio;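 active = replicate mean at a twofold rise or more, about +100% in these data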;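 also: firefly luciferase made from a UUG start codon reports start codon fidelity; reporter light over untreated wells divided by growth signal over untreated wells; some hits fall short of that in this replicate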
MT1-MMP act inh: inhibitors of human MT1-MMP activation; HT1080 RFP-PRO-GFP cells, GFP/RFP ratio fluorescence, overnight; percent of plate control window, DMSO zero; GFP/RFP ratio change, % at 20 µM; 0.061% of 360,000 active; AID 651647;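 active = GFP/RFP ratio change of at least 30% with cell ATP level not reduced by more than half and red fluorescence within 50% of control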; also: strong numbers were not always called active
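Assay system – RFP-PRO-GFP reporter HT1080 cells · Compound dosing – single dose of 20 µM compound, 1% DMSO final · Incubation – overnight compound exposure at 37 °C · Measure – GFP/RFP fluorescence ratio · Benchmarks – DMSO wells and RFP-L50D-GFP cells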
Rce1 inh: yeast Ras-converting enzyme inhibition. yeast membranes, quenched prenylated peptide cleavage fluorescence. calls only. 0.27% of 290,000 active. AID 2563;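 active = fall in fluorescence gain of 50% or more versus controls, with final raw signal at or below 3038400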;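 also: plate controls were neutral control wells for no effect and wells lacking membranes for full effect; tested at 10 µM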
eIF4H inh: inhibitors of RNA binding by human eIF4H. Q15056. eIF4H fluorescence polarization binding assay. inhibition, % at 35 µM. 0.94% of 290,000 active. AID 2012;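 active = 50% or more with normal probe brightness, or confirmed in later tests; about a fifth of its hits are not listed in these tables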;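 also: calls also rest on retests at 20 µM and on dose response follow-up; 0% = protein and probe with vehicle and 100% = probe without protein; strong numbers were not always called active; many hits fall short of the cut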
eIF4H inh retest: also measured in eIF4H inh; calls as there; inhibition, %; compound at 20 µM; confirmation average;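 mean of two retest wells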
PABP FP inh retest: recorded beside PABP FP inh, whose call it bears; inhibition, %; compound at 20 µM; confirmation repeats;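 mean of two retest wells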
MT1-MMP act inh RFP: second read-out of MT1-MMP act inh, no call of its own (marks repeat the call); RFP signal change, %; measured here: RFP expression control read;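 0 = vehicle wells; hits needed this value within 50% of zero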
* = called active by the depositor; i = inactive; nt = no result given. Some of the compounds tested. The share of hits here may be higher or lower than overall.

SMILES	PABP FP inh	CSC inhib	Env fusion inh	Yeast UUG start	MT1-MMP act inh	MT1-MMP act inh RFP	Rce1 inh	eIF4H inh	others
CCc1ccc(CC)c(S(=O)(=O)Nc2ccc(O)c(C(=O)O)c2)c1	16	-1	nt	-16	-6	7	i	8
O=C(NC(Cc1ccc(F)cc1)C(=O)O)c1ccccc1 (stereo not drawn)	-11	-5	nt	-17	-2	7	i	4
COc1ccc(S(=O)(=O)N(Cc2ccccc2)c2ccccc2C(=O)N2CCOCC2)cc1	4	20	2	9	-1	-6	i	-2
COc1ccc(Nc2ncnc3c2cnn3Cc2ccc(C)cc2)cc1	-16	-4	30	-10	4	-5	i	-4
Cc1occc1C(=O)O/N=C(\N)c1ccc(Cl)cc1	0	-6	-33	-11	11	1	i	-8
CC(=O)c1ccc(NC(=O)C[n+]2cccc(C)c2)cc1	1	7	-2	-9	1	-1	i	3
Cc1cc(C)cc(C(=O)N2CC(C)SC2=Nc2cccc(S(=O)(=O)N(C)C)c2)c1 (stereo not drawn)	-4	2	nt	1	-2	-1	i	1
CCn1c(SCc2nc3ccccc3c(=O)[nH]2)nnc1C(C)NC(=O)c1ccccc1F (stereo not drawn)	-6	-8	16	nt	4	3	i	0
CC(C)CNc1nc(S(=O)(=O)c2ccccc2)c(Cl)s1	-2	19	9	10	-2	-17	i	7
COc1cccc(NC(=O)c2cccnc2)c1	-9	-6	i	-18	0	1	i	-6
O=c1c2[nH]c3ccc(F)cc3c2ncn1CCCn1ccnc1	-2	11	nt	-23	7	6	i	-3
O=S(=O)(Nc1ccc(N2CCCCC2)cc1)c1ccc(F)cc1	8	-6	-3	-17	2	-7	i	-4
CCCCn1c(CN2CCN(C(=O)c3ccco3)CC2)nc2c1c(=O)n(C)c(=O)n2C	-2	nt	-109	-7	3	3	i	-8
COc1cccc(CN(C)CC(=O)NCc2ccc(F)cc2)c1OC	-1	-7	7	-6	-4	-2	i	4
COC(=O)c1cccc(S(=O)(=O)N2CCC(n3nnc4cc(F)ccc43)CC2)c1	-2	nt	-13	6	-5	-14	i	9
CC(C)C[C@H](NC(=O)c1nc[nH]c1C(=O)N[C@@H](CC(C)C)C(=O)OC(C)(C)C)C(=O)OCc1ccccc1	-9	46	33	nt	nt	nt	i	6
Cc1c(CCC(=O)NCCC(=O)O)c(=O)oc2cc3occ(-c4ccccc4)c3cc12	25	-8	-9	5	4	1	i	6
O=C(NCCNc1ccc([N+](=O)[O-])cc1)c1ccccc1F	-5	-6	-10	-1	-1	-1	i	-5
CCN(CCCCCCN)c1ccc2c(=O)[nH][nH]c(=O)c2c1	-6	4	4	nt	9	5	i	30
COc1ccc(N(C(=O)c2snc(C(N)=O)c2N)C(C(=O)NC2CCCC2)c2ccco2)cc1OC (stereo not drawn)	-1	nt	-8	5	-1	1	i	-6

Next part, starting with the last 2 of the part before.
SMILES	PABP FP inh	CSC inhib	Env fusion inh	Yeast UUG start	MT1-MMP act inh	MT1-MMP act inh RFP	Rce1 inh	eIF4H inh	others
CCN(CCCCCCN)c1ccc2c(=O)[nH][nH]c(=O)c2c1	-6	4	4	nt	9	5	i	30
COc1ccc(N(C(=O)c2snc(C(N)=O)c2N)C(C(=O)NC2CCCC2)c2ccco2)cc1OC (stereo not drawn)	-1	nt	-8	5	-1	1	i	-6
CCOc1ccc(CCNC(=O)CCNC(=O)c2ccc(Br)cc2)cc1OCC	8	-19	27	7	-4	-4	i	-9
CC1(Cc2cc(Cl)ccc2C(F)(F)F)C(=O)Nc2cc(C(F)(F)F)ccc21 (stereo not drawn)	nt	nt	-42	-27	-3	-15	nt	nt
CCOC(=O)N1CCN(C(=O)CSc2nc3c(cnn3-c3ccc(C)cc3)c(=O)[nH]2)CC1	2	nt	-11	-1	10	0	i	-11
O=C(CCC(=O)N1CCCC1)Nc1nnc(C(F)(F)F)s1	4	-2	nt	nt	-2	3	i	-9
COc1cc([C@@H]2c3cc4c(cc3[C@@H](O)[C@@H](CO)[C@@H]2CO)OCO4)cc(OC)c1O[Si](C)(C)C(C)(C)C	-8	58	nt	nt	nt	nt	i	-7
O=c1c2ccccc2nnn1Cc1ccccn1	-12	-16	-37	-22	-1	3	i	-2
O=C(COC(=O)CNC(=O)c1ccc(-c2ccccc2)cc1)NCc1ccco1	4	-3	17	-11	3	6	i	72	eIF4H inh retest=-17;PABP FP inh retest=9
Cc1cc(C)cc(C(=O)Nc2c3c(nn2C(C)(C)C)CS(=O)(=O)C3)c1	10	2	-26	-3	-2	2	i	0
CCOC(=O)/C(C#N)=C/c1c(N2CCN(c3ccccc3)CC2)nc2c(C)cccn2c1=O	13	-3	-1	-7	-6	-1	i	23
CCOC(=O)C1CCCN(C(=O)c2cc(Nc3ccc(OC)c(OC)c3)nc3ccccc23)C1 (stereo not drawn)	0	0	-27	-12	2	7	i	-12
Cc1ccc2oc(=O)c3cnn(CC(=O)N4CCCCC4C)c3c2c1 (stereo not drawn)	5	-11	12	-8	1	1	i	1

Seven compounds picked at random from those above, as already listed:
SMILES	PABP FP inh	CSC inhib	Env fusion inh	Yeast UUG start	MT1-MMP act inh	MT1-MMP act inh RFP	Rce1 inh	eIF4H inh	others
Cc1ccc2oc(=O)c3cnn(CC(=O)N4CCCCC4C)c3c2c1 (stereo not drawn)	5	-11	12	-8	1	1	i	1
CCOC(=O)N1CCN(C(=O)CSc2nc3c(cnn3-c3ccc(C)cc3)c(=O)[nH]2)CC1	2	nt	-11	-1	10	0	i	-11
Cc1cc(C)cc(C(=O)Nc2c3c(nn2C(C)(C)C)CS(=O)(=O)C3)c1	10	2	-26	-3	-2	2	i	0
CCOC(=O)C1CCCN(C(=O)c2cc(Nc3ccc(OC)c(OC)c3)nc3ccccc23)C1 (stereo not drawn)	0	0	-27	-12	2	7	i	-12
O=C(CCC(=O)N1CCCC1)Nc1nnc(C(F)(F)F)s1	4	-2	nt	nt	-2	3	i	-9
O=c1c2ccccc2nnn1Cc1ccccn1	-12	-16	-37	-22	-1	3	i	-2
CC1(Cc2cc(Cl)ccc2C(F)(F)F)C(=O)Nc2cc(C(F)(F)F)ccc21 (stereo not drawn)	nt	nt	-42	-27	-3	-15	nt	nt
